Bioassay records deposited in PubChem by National Center for Advancing Translational Sciences (NCATS).
Menin-MLL FL inh: inhibitors of human menin-MLL interaction, wild-type MLL peptide; Fluorescence polarization, fluorescein-MLL peptide displacement from menin; FP activity change, % at 61.4 µM; 290,000 tested, under 10 active; AID 1766; inconclusive = falling polarisation curve, or a change in total fluorescence; inactive = total fluorescence flat and polarisation flat or rising; no compound was filed as active; the % refers to the polarisation; negative = inhibition;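 further: % of control where 0% means no effect; inhibitors lower the polarisation; unlabelled MLL peptide was the positive control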
TRPML1 inh: inhibitors of human TRPML1 channel; Q9GZU1; TRPML1-inducible cells, Ca2+ dye fluorescence, FDSS; hits give low values; inhibition of EC80 agonist-evoked calcium signal; activity change, negative = inhibition, % (no concentration beside the values); actives 0.02% (n = 390,000); in the data active means activity change below about -50%; inconclusive means about -30% to -50%; inactive means above about -30%;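 further: stimulus is agonist 54-4 at its EC80 concentration; on the % scale 0 is the no-effect control and ±100 the full control effect; compound concentration not given in the record; the text of the record puts the active cut at -80%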
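TRPML1-DL cells, Tet-induced overnight (~16 h, 37 °C) at 1,500 cells/well, were loaded with Ca8 no-wash dye plus quencher for 45-90 min at room temperature. Compounds were pinned during FDSS kinetic reading; agonist 54-4 at EC80 (4 uM final) then added.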
Sfp PPTase inh: inhibitors of Bacillus subtilis Sfp phosphopantetheinyl transferase | Potency, µM, for inactives: max response, negative = inhibition, usual class: inhibitors | AID 1490 | actives 3.5% (n = 310,000) | Q9F4F7 | Biochemical Sfp PPTase activity, qHTS; active means well fitted inhibition curve with a large enough effect; inconclusive means small, poorly fitted or top-dose-only effect, or another doubt; inactive means no such curve, though single readings can be large or run the other way;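 further: the enzyme is Sfp with the accession as filed and its product quenches rhodamine fluorescence; potency means the concentration at half of the fitted maximal effect; 0% = enzyme reaction without inhibitor and -100% = no enzyme wells; top concentration of the series not given in the record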
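After 15 min at room temperature with compound, 15 nM Sfp received 5 uM rhodamine-CoA plus 12.5 uM BHQ-2-ybbR (50 mM Hepes pH 7.6, 10 mM MgCl2). Rate came from the fluorescence difference over 30 min, ex 525/em 598 nm.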
TRPML1 agonist: agonists of human TRPML1 channel. TRPML1-expressing cells, Ca2+ dye fluorescence, FDSS; host cell line not named in the record; reference of the full effect not given here. actives 0.12% (n = 410,000). AID 624414. activation, % (test concentration not listed); in the data active = activation above about 50%; inconclusive = about 30% to 50%; inactive = below about 30%; further: 0% is about no effect; the text of the record puts the active cut at 80%
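Agonist activity was taken from a 110 s kinetic Ca2+ dye read on the FDSS after pinning compounds onto TRPML1-DL cells. The cells were seeded at 1,500/well with Tet inducer, incubated about 16 h, then dye-loaded at room temperature.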
PINK1 expr mod: modulators of PINK1 expression; PINK1 immunofluorescence, high-content cytometry, 24 h; Potency, µM (series often up to 76.6 µM), for inactives: at the highest dose activation (PINK1 increase), hits mostly activators; actives 0.2% (n = 410,000); AID 624263; active = well fitted activation curve with a large enough effect; inconclusive = small, poorly fitted or top-dose-only effect; inactive = flat fitted curve, though single readings scatter; cell line not stated here;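 further: potency means the concentration at half of the fitted maximal effect; % of control where 0% means no effect; nearly all actives have a fitted effect of over 65% in size; a mitochondrial uncoupler was the plate control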
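Decision-based qHTS: stable cells, 24 h exposure to five compound concentrations, CCCP as control. Fixed cells stained for PINK1 plus nuclear, mitochondrial and cell markers, cytometer read.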
ClpP mod: qHTS Assay for Activators of ClpP. purified B. subtilis ClpP, FRET peptide cleavage, 20 min. Potency, µM (titrated, usually from 57.5 µM), for inactives: at the top dose activity change, negative = active. actives 1.9% (n = 340,000). AID 651965, 2013; active = well fitted falling curve with a large enough effect; inconclusive = small, poorly fitted or top-dose-only effect; inactive = no such curve, though single readings can be large or run the other way; further: potency means the concentration at half of the fitted maximal effect; the source files actives as falling curves though it sought activators and does not explain the sign; nearly all actives have a fitted effect of over 65% in size; many hits overshoot -100%
Target sequence (P80244 whole entry, looked up): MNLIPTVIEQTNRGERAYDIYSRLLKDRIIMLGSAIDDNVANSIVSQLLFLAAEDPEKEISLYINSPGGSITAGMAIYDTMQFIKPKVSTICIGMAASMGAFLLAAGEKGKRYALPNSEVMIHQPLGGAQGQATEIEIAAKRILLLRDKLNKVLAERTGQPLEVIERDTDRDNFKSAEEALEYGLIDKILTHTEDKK
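Buffer: 100 mM Tris/HCl pH8, 100 mM KCl, 0.05% low protease BSA, 2.5% glycerol, 0.01% Tween-20. ClpP 10 microg/mL final; 20 min RT; delta FRET normalized to ADEP and DMSO controls.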
TRPV1 PAM: human TRPV1 potentiation; potentiation, % at 8.33 µM; Q8NER1; TRPV1-expressing cells, Fluo-8 calcium influx, capsaicin EC20 potentiation; host cell line not named in the record; control for the full effect not named in the record; actives 0.02% (n = 320,000); active means potentiation above 80%; inconclusive means 30% to 80%; inactive means below 30%; further: 0% is about no effect
Target sequence (Q8NER1 whole entry, looked up): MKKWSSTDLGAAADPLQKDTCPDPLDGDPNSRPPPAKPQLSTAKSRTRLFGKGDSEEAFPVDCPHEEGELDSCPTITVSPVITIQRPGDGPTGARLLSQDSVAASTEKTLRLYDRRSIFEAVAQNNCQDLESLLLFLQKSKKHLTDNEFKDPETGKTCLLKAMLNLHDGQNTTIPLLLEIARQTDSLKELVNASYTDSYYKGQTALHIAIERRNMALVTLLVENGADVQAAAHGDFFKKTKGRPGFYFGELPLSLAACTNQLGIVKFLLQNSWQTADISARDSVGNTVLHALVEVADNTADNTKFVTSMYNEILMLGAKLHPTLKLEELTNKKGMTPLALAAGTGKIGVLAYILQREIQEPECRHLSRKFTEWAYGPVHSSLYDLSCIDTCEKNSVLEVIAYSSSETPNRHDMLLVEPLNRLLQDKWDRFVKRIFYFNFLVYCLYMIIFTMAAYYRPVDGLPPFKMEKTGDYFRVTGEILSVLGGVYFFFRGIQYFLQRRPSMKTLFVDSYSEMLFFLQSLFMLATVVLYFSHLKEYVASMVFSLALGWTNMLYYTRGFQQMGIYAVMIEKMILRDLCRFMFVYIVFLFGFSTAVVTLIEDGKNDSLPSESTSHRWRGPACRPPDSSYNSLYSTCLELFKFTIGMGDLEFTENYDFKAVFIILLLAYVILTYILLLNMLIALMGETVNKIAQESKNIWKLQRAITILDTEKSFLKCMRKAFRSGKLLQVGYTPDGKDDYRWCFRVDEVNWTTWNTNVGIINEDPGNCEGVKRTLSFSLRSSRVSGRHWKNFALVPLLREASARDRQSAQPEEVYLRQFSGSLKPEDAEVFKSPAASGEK
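Fluo-8 calcium influx in TRPV1-expressing cells, kinetic read (ex 480/em 520 nm). Compound added and read 3 min for agonist activity, followed by capsaicin at EC20 final and 2 min further read for enhancement.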
* = called active by the depositor; ? = inconclusive; . = no result given; & = joins results of further samples; [ ] = dose if it differs, or a comment.

SMILES	Menin-MLL FL inh	TRPML1 inh	Sfp PPTase inh	TRPML1 agonist	PINK1 expr mod	ClpP mod	TRPV1 PAM
CS(=O)(=O)N1CCC(C(=O)Nc2ccc(Oc3ccccc3)cc2)CC1	6.9	2	2%	0.4	-1.1%[38.3 µM]	-1.3%	7
CCOC(=O)Cc1c(C)[nH]c(=S)[nH]c1=O	5.7	32	79µM*	1.0	4.4%	-2.3%	19
CCC1=C(OC(=O)N(CC)CC)N2C(=O)OC(=NCC3CC3)[C@]2(Cc2ccccc2)[C@H]2C1=CC[C@H]1C(=O)NC(=O)[C@H]12	1.4&0.2	-7	14%&-2%	0.3	0.0%	-1.7%	-5
CN1C2CCC1/C(=C\c1ccccc1F)C(=O)/C2=C/c1ccccc1F	-0.7	30	3%	0.0	0.3%	-3.3%	7
CCNC(=S)N1CCN(Cc2ccccc2)CC1	2.3	2	-23%	0.3	0.5%	-0.6%	-7
Cc1ccc(NC(=O)c2cccc(N3C(=O)C4C5C=CC(C5)C4C3=O)c2)cc1C (stereo not drawn)	.	3	-8%	-0.2	0.9%	1.8%	-8
CC(=O)C1=C(c2ccccc2)NC(=O)NC1c1ccc(O)c(O)c1 (stereo not drawn)	6.1	10	45µM*	0.9	2.3%	.	13
Cc1cc(C)c(C(=O)C2OC(=O)C(C)(C)C(=O)C2(C)C)c(C)c1 (stereo not drawn)	0.2	64	6%	2.5	-0.1%	-2.5%	-6
COc1cc(OC)c2c(-c3cccc(-c4ccc(C(C)=O)cc4)c3)cc(=O)oc2c1	6.3	9	0%	-0.7	2.2%	?	.
Cc1ccc(NS(=O)(=O)c2ccc(-c3cnc(C4CC4)o3)cc2)cc1	.	-3	-4%	0.6	3.4%	-4.2%	-12
Cc1cccc(N(C)S(=O)(=O)c2nnc(NC(=O)c3ccco3)s2)c1	1.1	-6	32%[activator]	3.4	-1.7%	-6.8%	13
CCOC(=O)c1[nH]c2ccccc2c1NC(=O)c1ccc(OC(C)C)cc1	.	-9	.	-0.2	5.3%	129%	.
COc1cc(OC)cc(C(=O)N2CCN(c3ccc(N4CCOCC4)nn3)CC2)c1	.	-1	.	-0.6	1.3%	.	-3
Cc1nc2ccc(S(=O)(=O)N(CC(=O)Nc3cccc(F)c3)Cc3ccccc3)cc2s1	.	15	.	1.4	5.4%	-3.3%	.
Cc1ccccc1Cn1c(=O)n(-c2ccc(Cl)cc2)c(=O)c2c3c(sc21)CCCC3	.	1	.	-0.3	6.9%	1.6%	.
CSc1ccc(CCNC(=O)c2ccc3c(c2)nc2n3CCOC2)cc1	.	-9	.	-0.4	-0.2%	-0.4%	.
COc1ccc(Cl)cc1NC(=O)Cn1nnc(C(=O)NCCc2ccc(OC)c(OC)c2)c1N	.	-1	-11%	-0.3	6.8%	-1.3%	25
Cc1c(C)n(Cc2ccc(F)cc2)c2ccc(C(=O)NCc3ccco3)cc12	.	22	.	2.0	4.5%	?	.
O=C(COc1ccc(F)cc1)Nc1cccc(OCc2cc(=O)n3ccccc3n2)c1	.	7	.	1.1	?	4.1%	.
CCOC(=O)C1CCN(Cc2ccc(OC)c(C)c2OC)CC1	-0.4	0	0%	-0.3	-2.8%	-2.6%	9
O=C(CSc1nc2ccccc2s1)CSc1nc2ccccc2s1	5.5	-12	?	-0.5	-0.1%[38.3 µM]	-3.6%	11
Cc1cc2nncn2c(Cc2ccccc2)n1	0.9	-10	11%	-0.4	0.0%	0.1%	16
CCOc1ccc(NC(=O)c2cnn(-c3ccc(C)c(Cl)c3)c2C2CCNCC2)cc1	.	17	.	0.2	-3.7%	-1.6%	.
CCCCc1c(O)nc(SCC(=O)Nc2ccc(C)cc2)n(-c2ccc(OC)cc2)c1=O	.	-9	17%	-1.3	-0.6%	1.6%	9
CN1CCN(S(=O)(=O)c2cccc(C(=O)NCc3ccc(Cl)cc3)c2)CC1	-2.4	-17	16%	-0.5	0.9%	1.8%	-6
O=C(CSCc1ccccc1)Nc1ccccc1C(=O)Nc1ccc(C(=O)O)cc1	3.3	3	1%	0.9	0.3%	.	4
Cc1ccc(NC(=O)C2CCCN(c3nnc(C)c4c(C)n(-c5ccccc5)nc34)C2)c(Cl)c1 (stereo not drawn)	.	15	.	1.3	0.1%	-27%	.
CCc1nc2c(OCCC3CCCCC3)cccn2c1N(C)C(=O)c1ccc(OC)cc1	.	-13	.	-0.5	2.0%	-3.7%	.
CN(C)S(=O)(=O)c1ccc(C(=O)OCC(=O)Nc2ccc(OC(F)F)cc2)cc1	-6.9	9	6%	0.1	1.0%	2.6%	-13
COC(=O)c1cccc(-n2c(=O)n(Cc3ccccc3)c(=O)c3[nH]cnc32)c1C	-5.0	-6	-26%	-0.2	-0.2%	-3.6%	0
COc1cccc(-c2nnc(-c3ccc(C)o3)o2)c1	?	-8	56µM*	-0.4	-2.6%	281%	12
COCC(C)NC(=O)CSc1nnc(-c2cccc(S(=O)(=O)N3CCCCC3)c2)o1 (stereo not drawn)	-0.1	1	9%	-0.5	0.5%	.	3
CC1Cc2nc(SCC(=O)Nc3ccc4c(c3)OCO4)n(Cc3ccccc3)c(=O)c2S1 (stereo not drawn)	-1.8	35	-1%	0.8	-1.5%[38.3 µM]	-2.2%	3
Cc1nc(SCC(=O)c2cc(C)n(C3CC3)c2C)c2ccccc2n1	.	-12	.	0.2	5.2%	3.2%	.
CN1CCN(C(=O)c2ccccc2NC(=O)c2cccc(Cl)c2)CC1	.	18	2%	-0.1	2.8%	1.1%	9
COc1ccc(N(C(=O)CNC(=O)c2ccco2)C(C(=O)NC2CCCC2)c2ccncc2)cc1 (stereo not drawn)	-0.8	-5	5%	-0.4	0.5%	.	0
CCCSc1nc(C)cc(C)c1S(=O)(=O)c1ccccc1C	1.3	82	-9%	1.8	0.9%	-4.6%	2
COC(=O)c1cc(-c2ccc(OC)c(OC)c2)on1	-0.3	3	16%	-0.8	2.6%	-0.9%	17
COc1ccc(NC(=O)/C(=C/c2cccs2)NC(=O)c2ccco2)cc1	1.9	1	19%	0.0	2.1%	.	3
CCN(CC)CCNC(=O)c1sc2ncccc2c1-n1cccc1	.	6	.	0.9	0.0%	-4.0%	.
O=[N+]([O-])c1ccc(N2CCCCC2)cc1NCCOc1ccccc1	0.4	-4	-4%	0.7	14%	-3.2%	-2
CCCCc1nnc(NC(=O)c2ccccc2OCc2c(C)noc2C)s1	.	18	.	0.1	-0.5%	3.5%	1
Cc1ccc(C(=O)Nc2nc(-c3ccccn3)cs2)s1	.	-18	.	0.1	-1.0%	-2.8%	-7
Cc1ccc(C)c(OCc2cc(C(=O)NC(c3ccccn3)C(F)(F)F)no2)c1 (stereo not drawn)	.	8	.	3.4	1.1%	-2.2%	.
CCOCC(=O)Nc1cc(S(=O)(=O)N2CCOCC2)ccc1N1CCCCC1	6.6	17	11µM*	3.4	2.2%	.	-22
COc1ccc(OS(=O)(=O)c2ccc(N3C(=O)CCC3=O)cc2)cc1	-1.9	23	8%	-0.3	1.3%	.	-41
COc1cccc(N2C(=O)CC(N3CCc4ccccc4C3)C2=O)c1 (stereo not drawn)	1.6	15	-8%	4.6	-0.1%	0.4%	-3
CC(C)NC(=O)Nc1n[nH]c(Nc2ccc(Cl)cc2)n1	0.0	2	13%	0.4	-1.7%	.	7
Cc1cc(NC(=O)Cc2ccsc2)ccc1Br	6.4	18	3%	0.7	-3.4%	-1.6%	-12
N#Cc1cccc(NC(=O)Cn2nc(Cc3ccncc3)c3ccccc3c2=O)c1	.	21	.	1.4	0.3%	-3.8%	.
O=C(Nc1cccc(S(=O)(=O)N2CCCCC2)c1)c1cc(=O)[nH]c2ccccc12	.	-7	.	0.7	-0.3%	-5.1%	.

Gathered by group: the entries above with a halogen.
SMILES	Menin-MLL FL inh	TRPML1 inh	Sfp PPTase inh	TRPML1 agonist	PINK1 expr mod	ClpP mod	TRPV1 PAM
CN1C2CCC1/C(=C\c1ccccc1F)C(=O)/C2=C/c1ccccc1F	-0.7	30	3%	0.0	0.3%	-3.3%	7
Cc1nc2ccc(S(=O)(=O)N(CC(=O)Nc3cccc(F)c3)Cc3ccccc3)cc2s1	.	15	.	1.4	5.4%	-3.3%	.
Cc1ccccc1Cn1c(=O)n(-c2ccc(Cl)cc2)c(=O)c2c3c(sc21)CCCC3	.	1	.	-0.3	6.9%	1.6%	.
COc1ccc(Cl)cc1NC(=O)Cn1nnc(C(=O)NCCc2ccc(OC)c(OC)c2)c1N	.	-1	-11%	-0.3	6.8%	-1.3%	25
Cc1c(C)n(Cc2ccc(F)cc2)c2ccc(C(=O)NCc3ccco3)cc12	.	22	.	2.0	4.5%	?	.
O=C(COc1ccc(F)cc1)Nc1cccc(OCc2cc(=O)n3ccccc3n2)c1	.	7	.	1.1	?	4.1%	.
CCOc1ccc(NC(=O)c2cnn(-c3ccc(C)c(Cl)c3)c2C2CCNCC2)cc1	.	17	.	0.2	-3.7%	-1.6%	.
CN1CCN(S(=O)(=O)c2cccc(C(=O)NCc3ccc(Cl)cc3)c2)CC1	-2.4	-17	16%	-0.5	0.9%	1.8%	-6
Cc1ccc(NC(=O)C2CCCN(c3nnc(C)c4c(C)n(-c5ccccc5)nc34)C2)c(Cl)c1 (stereo not drawn)	.	15	.	1.3	0.1%	-27%	.
CN(C)S(=O)(=O)c1ccc(C(=O)OCC(=O)Nc2ccc(OC(F)F)cc2)cc1	-6.9	9	6%	0.1	1.0%	2.6%	-13
CN1CCN(C(=O)c2ccccc2NC(=O)c2cccc(Cl)c2)CC1	.	18	2%	-0.1	2.8%	1.1%	9
Cc1ccc(C)c(OCc2cc(C(=O)NC(c3ccccn3)C(F)(F)F)no2)c1 (stereo not drawn)	.	8	.	3.4	1.1%	-2.2%	.
CC(C)NC(=O)Nc1n[nH]c(Nc2ccc(Cl)cc2)n1	0.0	2	13%	0.4	-1.7%	.	7
Cc1cc(NC(=O)Cc2ccsc2)ccc1Br	6.4	18	3%	0.7	-3.4%	-1.6%	-12
